# From PubChem
# KCNQ2 block – KCNQ2 potassium channel inhibitors, primary screen, cell-based, CHO-K1, FluxOR thallium flux, B-score (AID 2156) | B-score at 10 µM | 310,000 compounds, 1.1% hits | O88943 | 20 min; hits give low values; only compounds with negative scores are shown here; some inactives read as strong as hits;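 active = fluorescence ratio B-score at most minus 3 library SDs, with starting brightness B-score within 2 library SDs, cut at about -5.5 in these data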
# Target sequence (O88943 whole entry, looked up): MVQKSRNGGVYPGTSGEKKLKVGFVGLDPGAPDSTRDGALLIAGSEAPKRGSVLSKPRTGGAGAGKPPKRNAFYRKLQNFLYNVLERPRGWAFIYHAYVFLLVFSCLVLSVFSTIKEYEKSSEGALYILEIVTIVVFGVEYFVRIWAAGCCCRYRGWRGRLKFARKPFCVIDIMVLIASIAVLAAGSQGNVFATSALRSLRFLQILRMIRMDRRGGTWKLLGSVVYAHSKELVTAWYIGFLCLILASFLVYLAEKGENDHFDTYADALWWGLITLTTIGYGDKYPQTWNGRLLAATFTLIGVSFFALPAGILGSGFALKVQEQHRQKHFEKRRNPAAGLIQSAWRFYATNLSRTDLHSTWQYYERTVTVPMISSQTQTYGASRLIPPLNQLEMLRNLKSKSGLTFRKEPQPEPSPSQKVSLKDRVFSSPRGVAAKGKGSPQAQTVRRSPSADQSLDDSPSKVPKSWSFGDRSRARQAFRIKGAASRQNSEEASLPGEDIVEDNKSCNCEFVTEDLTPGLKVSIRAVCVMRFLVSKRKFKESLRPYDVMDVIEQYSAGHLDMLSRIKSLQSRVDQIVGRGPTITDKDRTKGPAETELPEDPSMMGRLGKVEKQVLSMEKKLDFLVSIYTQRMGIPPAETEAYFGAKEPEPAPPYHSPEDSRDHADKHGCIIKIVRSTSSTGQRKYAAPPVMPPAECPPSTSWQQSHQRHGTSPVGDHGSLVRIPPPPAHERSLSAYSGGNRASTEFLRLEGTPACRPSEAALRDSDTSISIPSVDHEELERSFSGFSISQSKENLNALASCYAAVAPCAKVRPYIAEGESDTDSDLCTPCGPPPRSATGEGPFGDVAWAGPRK
# KCNQ2 block baseline – further read-out of KCNQ2 block, marked with its call; B-score; measured here: initial fluorescence intensity artifact check;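 brightness before thallium and not channel activity; 0 = typical well and far values either way flag optical interference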
# Active calls of the source: *; i = inactive. An excerpt; count on the stated rates, not on these rows.
# Sample of the layout:
KCNQ2 block | KCNQ2 block baseline | molecule
i | 2.78 | Oc1ccc(C[C@H]2CNCCN2CCc2cccc(F)c2)cc1
i | 1.04 | CCOC(=O)c1ccccc1NC(=S)N1CC(C)CC(C)C1 (stereo not drawn)
i | 2.92 | Cc1ccc(/C=N/NC(=S)N2CCOCC2)cc1
i | -0.32 | COc1ccc(Nc2nc(-c3ccc4c(c3)NC(=O)CO4)cs2)cc1
i | 0.34 | CC1CCN(CC(=O)Nc2cccc(Cl)c2)CC1
i | 2.71 | Cc1ccc2nc(-c3cccc(NC(=O)c4ccc5c(c4)OCCO5)c3)oc2c1

# All compounds of this part, previewed entries included:
KCNQ2 block | KCNQ2 block baseline | molecule
i | 2.78 | Oc1ccc(C[C@H]2CNCCN2CCc2cccc(F)c2)cc1
i | 1.04 | CCOC(=O)c1ccccc1NC(=S)N1CC(C)CC(C)C1 (stereo not drawn)
i | 2.92 | Cc1ccc(/C=N/NC(=S)N2CCOCC2)cc1
i | -0.32 | COc1ccc(Nc2nc(-c3ccc4c(c3)NC(=O)CO4)cs2)cc1
i | 0.34 | CC1CCN(CC(=O)Nc2cccc(Cl)c2)CC1
i | 2.71 | Cc1ccc2nc(-c3cccc(NC(=O)c4ccc5c(c4)OCCO5)c3)oc2c1
i | 0.01 | Cc1cccc(-c2ccc(C=Nc3c(C)n(C)n(-c4ccccc4)c3=O)o2)c1
i | 0.89 | CC(C)(C)c1ccc(S(=O)(=O)n2c(CN3CCOCC3)nc3ccccc32)cc1
i | 10.7 | CC(=O)c1ccc(N2C(=O)C3C(C2=O)C(C(=O)c2ccc(Cl)cc2)N2CCCC32)cc1 (stereo not drawn)
i | 0.66 | CC(C)[C@H](NC(=O)c1ccccc1F)C(=O)NCCc1ccccc1
i | -0.88 | CCCCN1CC(O)=C(c2nc3ccccc3s2)C1=N
i | -0.37 | COC(=O)c1c(NC(=O)CCCC(=O)O)sc(C)c1C
i | 1.82 | COc1ccc(N2C(=O)CC(N3CCN(C4CCc5ccccc5C4)CC3)C2=O)cc1 (stereo not drawn)
i | -0.32 | O=C(NC1CC1)C1=C[C@@H](c2ccc3c(c2)OCO3)C[C@@H](OCCCCO)O1
i | 1.03 | CCOC(=O)CNC(=O)c1sc(NC(=O)/C=C/c2ccccc2)nc1C

# Going on with the list.
KCNQ2 block | KCNQ2 block baseline | molecule
i | -0.03 | CCOc1cc(/C=C2\C(=O)N(c3ccc(C(N)=O)cc3)N=C2C)ccc1OC(=O)c1cccs1
i | 0.47 | COC(=O)c1ccccc1NC(=O)C1CC(c2ccccc2O)=NO1 (stereo not drawn)
i | 0.59 | CC(Sc1ccccc1)C(=O)N(CCC#N)Cc1cccnc1 (stereo not drawn)
i | 1.37 | c1ccc(-c2csc(NC3=NCCCCC3)n2)cc1
i | 1.58 | CCOC(=O)C1(CCCc2ccccc2)CCN(C(=O)CCc2cnccn2)CC1
i | 0.54 | COc1ccc(NS(=O)(=O)c2cccc3nsnc23)cc1OC
i | 1.7 | Cc1ccc(/C=N/c2sc3c(c2C(N)=O)CCCC3)o1
i | -2.23 | Cc1ccc(CN=c2c([N+](=O)[O-])nn(-c3ccc4c(c3)OCCO4)n2O)cc1
i | 0.25 | O=C(NN1CCOCC1)c1cc(-c2cccc(Cl)c2)nc2ccccc12
i | 1.15 | Cn1cc(/C=N/NC(=O)COc2ccccc2[N+](=O)[O-])c2ccccc21
i | -0.99 | S=C(NCc1ccco1)N/N=C/c1ccccc1Cl
i | 0.69 | COc1ccc(CCN(C)CC(=O)Nc2cc(C)nc3ccccc23)cc1OC
i | 0.73 | C=CCN1C(=O)CN=C1Nc1ccc(OC)cc1OC
i | -0.07 | CCCCC1(C)Nc2ccccc2-c2nc3ccccc3n21 (stereo not drawn)
i | -0.82 | O=C1NC(=Nc2cccc(O)c2)S/C1=C\c1cccc([N+](=O)[O-])c1

# Further entries:
KCNQ2 block | KCNQ2 block baseline | molecule
i | -0.46 | CC(=O)Nc1ccc(S(=O)(=O)N(C)CC(=O)Nc2cccc(S(=O)(=O)N3CCCC3)c2)cc1
i | 0.13 | COC(=O)CCCC1=CC2=C(c3ccccc3)C(=O)C(C)(OC(=O)C3CCCC3)C(=O)C2=CN1c1ccc(OC)cc1 (stereo not drawn)
i | -0.85 | COc1ccc(CN(C(=O)Cc2cccs2)C(C(=O)NC2CCCC2)c2ccncc2)cc1 (stereo not drawn)
i | 1.24 | CCOP(=O)(OCC)C(Nc1ccccn1)c1ccccc1 (stereo not drawn)
i | -0.12 | O=C(O)c1cc(-c2ccc(Cl)cc2)n(-c2ccc(F)cc2)n1
i | 0.11 | Cc1cc2nc(CO)[nH]c2cc1C
i | 0.54 | O=C(NCc1ccc(Cl)cc1)c1ccc2ccccc2n1
i | 0.29 | Cc1cc(C)n2nc(C(=O)OCC(=O)N3C(C)CCCC3C)nc2n1 (stereo not drawn)
i | 0.84 | CN(C)/N=C/c1cc(Cl)cc([N+](=O)[O-])c1O
i | -0.73 | CCN(CCCNC(=O)c1[nH]c(C)c(C(C)=O)c1C)c1cccc(C)c1
i | 0.79 | O=C(Nc1ccc(F)cc1)N1CCc2ccccc2C1
i | -0.78 | CC(C)(C)OC(=O)NCCCC[C@H](NC(=O)c1[nH]cnc1C(=O)Nc1ccccc1)C(=O)OC(C)(C)C
i | 1.26 | Cn1cc(C(=O)c2cccc(Cl)c2)cc1/C=N\O
i | 0.84 | c1cc(-n2nnc3cnccc32)ccn1
i | 1.69 | NC(=O)Nc1ccc(C(=O)OCC(=O)Nc2ccc([N+](=O)[O-])cc2C(F)(F)F)cc1

# Further results
KCNQ2 block | KCNQ2 block baseline | molecule
i | 0.41 | CCOC(=O)c1ccc(NC(=S)NCc2ccc(F)cc2)cc1
i | -0.07 | O=C(OCc1ccc(Br)cc1)c1cccc(-c2nnc(-c3ccccc3)o2)c1
i | 0.06 | O=C(Nc1nc2ccsc2c(=O)s1)C1CCC1
i | 0.16 | CCOC(=O)c1cnc2nc[nH]n2c1=O
i | 0.77 | CC(C)(C)c1csc(NC(=O)CS(=O)(=O)c2ccccc2)n1
i | 3.24 | CCCCN1C(=O)/C(=C/C=C2\SCCN2C)SC1=S
i | 1.25 | Cc1ccc(C(=O)c2ccccc2C(=O)OCC(=O)NCCc2ccc(Cl)cc2Cl)cc1
i | -2.2 | O=C(CN1CCN(C(c2ccccc2)c2ccccc2)CC1)NCc1ccccc1
i | 0.03 | O=C1CCCc2c1[nH]c1ccc(Cl)cc21
i | -0.38 | Cc1cc(N2C(=O)C(=O)/C(=C(/O)c3ccccc3)C2c2cccs2)no1 (stereo not drawn)
-8.18* | -0.35* | Cc1ccc2c(c1)-c1c(cnn1CC(=O)N1CCCN(Cc3ccccc3F)C1)CO2
i | 0.66 | Nc1nc(Nc2ccccc2F)nc(N2CCOCC2)c1[N+](=O)[O-]
i | 0.02 | Cc1ccc(C)c(OCCC(=O)NCCc2ccc(F)cc2)c1
i | 0.04 | O=C(Nn1cnnc1)c1ccc([N+](=O)[O-])cc1
i | 1.81 | Cc1oc(-c2ccccc2Cl)nc1CSCC(=O)NC1CCCC1

# The results go on.
KCNQ2 block | KCNQ2 block baseline | molecule
i | 1.25 | COc1cccc(Nc2nnc(SCc3cc([N+](=O)[O-])cc4c3OCOC4)s2)c1
i | 0.2 | Cc1cc(N2CCCN(C)CC2)nc2cc(Cl)ccc12
i | -1.02 | C(#CC12CC3CC(CC(C3)C1)C2)CN1CCOCC1
i | 0.09 | Cc1ccn(CCSCC(=O)O)n1
i | -0.71 | CCOC(=O)c1ccsc1NC(=O)CCS(=O)(=O)c1ccccc1
i | 0.67 | O=S(=O)(c1c(F)cccc1F)N1CCN(C(=S)NCc2ccc3c(c2)OCO3)CC1
i | -0.02 | Cc1ccc(O)c(Nc2ncnc3ccccc23)c1
i | -1.06 | O=C(C1CCN(S(=O)(=O)c2cccs2)CC1)N1CCN(Cc2ccccc2)CC1
-5.74* | 1.46* | O=[N+]([O-])c1ccc2c(c1)C=C1CCCCC1(N1CCCCC1)O2 (stereo not drawn)
i | -1.12 | COc1ccc(C(CNC(=O)c2oc3cc(C)c(C)cc3c2C)N2CCCCC2)cc1 (stereo not drawn)
i | 1.71 | COc1ccc(C(=O)Nc2c(N)nc(SCC(=O)NCC3CCCO3)[nH]c2=O)cc1OC (stereo not drawn)
i | 0.03 | Cc1nn2c(-c3ccccc3)ccnc2c1Br
i | -0.61 | CCOC(=O)C1CCN(C(=O)COc2cc(C)c(Br)c(C)c2)CC1
i | 0.03 | C#CCNc1c2c(nc3nnnn13)CCCC2
i | 0.23 | O=C(NCC(=O)N(Cc1ccc(F)cc1)C(C(=O)NC1CCCC1)c1ccco1)c1ccco1 (stereo not drawn)

# Other structures follow:
KCNQ2 block | KCNQ2 block baseline | molecule
i | -0.62 | Cc1c(C(=O)N2c3ccccc3CC2C)oc2ccccc12 (stereo not drawn)
i | 0.51 | O=C(c1cccc([N+](=O)[O-])c1)n1nc(-c2ccccc2)nc1NCc1ccccc1
i | -0.77 | Cc1ccc2cc(CN(Cc3ccc4c(c3)OCO4)Cc3nnnn3Cc3ccco3)c(=O)[nH]c2c1C
i | -0.11 | Cc1cccc(C)c1NC(=O)CSc1nnc(-c2ccoc2C)n1CCc1ccccc1
i | -1.17 | C/C(Cc1ccccc1)=N\NC(=O)CNC(=O)COc1cccc(C)c1
i | 0.08 | CCCNC(=O)C(Sc1ccccc1)c1ccccc1 (stereo not drawn)
i | -1.26 | COc1ccc(-c2cn3cccnc3n2)cc1NC(=O)C1CCCC1
i | -0.53 | Nc1nc(SCC(=O)N2CCN(c3ccccc3)CC2)n[nH]1
-6.14* | -1.06* | COCc1nnc(NC(=O)c2ccccc2Oc2ccccc2)s1
i | 0.3 | COc1ccc(CNC(=O)CN(CCC(C)C)S(=O)(=O)c2ccc3c(c2)OCCO3)cc1
i | 1.1 | CC1=CC(C)(C)N2C(=O)C3(C(C#N)=C(N)Oc4cc(O)ccc43)c3cccc1c32 (stereo not drawn)
i | 1.6 | CC(C)(C)c1ccc(C2C(C(=O)c3ccco3)=C(O)C(=O)N2CC2CCCO2)cc1 (stereo not drawn)
i | 0.03 | CC(CNc1ccc([N+](=O)[O-])cc1)NC(=O)c1ccccc1Br (stereo not drawn)
i | -0.02 | O=C(O)CCc1ccc(-c2cccs2)n1NC(=O)c1ccc(Cl)cc1Cl
i | -0.01 | O=Nc1c(-c2ccccc2)cc2ccccn12

# Continuation.
KCNQ2 block | KCNQ2 block baseline | molecule
i | 1.83 | O=C(Nc1cccc(C(=O)N2CCCC2)c1)c1ccccc1
i | 2.73 | COc1ccc(C2CC(c3ccccc3)=NN2C(=O)COC(=O)CNC(=O)c2ccccc2)cc1 (stereo not drawn)
i | -2.21 | COc1cc(OC)cc(C(=O)OCC(=O)NC(C)CCc2ccccc2)c1 (stereo not drawn)
i | -1.41 | Cc1cccc(C(=O)NC(=S)Nc2ccc(S(=O)(=O)N3CCCCC3)cc2)c1
i | 0.15 | CCN(CC)CCNC(=O)c1nn(-c2ccc(C)cc2)c(=O)c2c1c1ccccc1n2C
i | -0.08 | CCOc1cc(-c2nc(-c3ccccc3OC)no2)cc(OCC)c1OCC
i | -0.59 | CN(C)CCCN1c2ccccc2CCc2ccc(Cl)cc21
i | -0.4 | Cc1ccc(N(CC(=O)NCCSCc2ccco2)S(C)(=O)=O)cc1
i | -0.04 | CC1CCCCC1NC(=O)CCCn1c(=S)[nH]c2ccsc2c1=O (stereo not drawn)
i | 0.94 | CCN(CC)Cc1c(O)c(Cl)cc2c3c(c(=O)oc12)CCCC3
i | 0.83 | CCOC(=O)c1c(NC(=O)COC(=O)c2nc(Cl)ccc2Cl)sc2c1CCC2
i | 1.5 | CCC(C)c1ccccc1NC(=O)CN1CCN(C/C=C/c2ccccc2)CC1 (stereo not drawn)
i | 0.25 | CS(=O)(=O)c1ccc(NS(=O)(=O)c2ccc3ccccc3c2)cc1
i | 0.02 | c1ccc(C2Nc3ccccc3-c3nc4ccccc4n32)cc1 (stereo not drawn)
i | 1 | Cc1nn(-c2ccccc2)c2c1P(=O)(O)/C(=C1\N(C)c3ccccc3C1(C)C)C=N2

# Two successive entries out of the list so far, quoted:
KCNQ2 block | KCNQ2 block baseline | molecule
i | -0.4 | Cc1ccc(N(CC(=O)NCCSCc2ccco2)S(C)(=O)=O)cc1
i | -0.04 | CC1CCCCC1NC(=O)CCCn1c(=S)[nH]c2ccsc2c1=O (stereo not drawn)

# Further results.
KCNQ2 block | KCNQ2 block baseline | molecule
i | -0.59 | Cc1ccc(-c2cc(C(=O)N(C)CC(=O)Nc3ccccc3Br)c3ccccc3n2)o1
i | 0.99 | CC(=O)Nc1cccc(NC(=O)c2ccccc2OCc2ccccc2)c1
i | 2.75 | COCCNS(=O)(=O)c1ccc2c(c1)C(=NO)c1cc(S(=O)(=O)NCCOC)ccc1-2
i | 0.01 | Cc1cc(/C=N/NC(=O)c2ccncc2)c(C)n1-c1cccc(C(F)(F)F)c1
i | -0.02 | CCCn1ncc(/C=N/O)c1C
i | -4.37 | COC(=O)C1CCCN1S(=O)(=O)c1ccc2ccccc2c1 (stereo not drawn)
i | 1.36 | CCC(C)NC(=O)CSc1nc2c(sc(=S)n2-c2cc(Cl)ccc2OC)c(=O)[nH]1 (stereo not drawn)
i | 2.14 | O=C(CSc1nnc(NC(=O)c2c(F)cccc2F)s1)NCc1ccco1
i | 0.73 | Cc1cc(=O)[nH]c(SCC(=O)/C=C2\N(C)c3ccccc3C2(C)C)n1
i | -1.57 | Oc1cccc(NC(=S)N=Nc2c(O)[nH]c3ccc(Br)cc23)c1
i | -0.77 | Cc1ccccc1CSc1[nH]c(=O)ncc1C
i | -0.7 | O=C(c1ccc(Cl)cc1)C1CCCN(Cc2cccn2-c2ccccn2)C1 (stereo not drawn)
i | -0.17 | N#Cc1c(-c2cccnc2)c2c([nH]c1=O)-c1ccccc1OC2
i | 1.25 | CC(OC(=O)c1nsc(Cl)c1Cl)C(=O)NC(C)(C)C (stereo not drawn)
i | -0.38 | Oc1ccc(-c2nnc(Nc3ccccc3)c3ccccc23)cc1

# Complete entries as entered above. Order of values: KCNQ2 block | KCNQ2 block baseline
# Oc1cccc(NC(=S)N=Nc2c(O)[nH]c3ccc(Br)cc23)c1 is listed as i | -1.57
# Cc1cc(=O)[nH]c(SCC(=O)/C=C2\N(C)c3ccccc3C2(C)C)n1 is listed as i | 0.73
